Cruzain noTriton = qHTS Assay for Promiscuous and Specific Inhibitors of Cruzain (without detergent); Cruzipain (Trypanosoma cruzi), P25779; purified cruzain, Z-FR-AMC fluorescence, no detergent; Potency, µM, without a hit: max response, negative = inhibition, actives largely listed as inhibitors; 2.3% of 200,000 active; active means well fitted curve in the direction sought with a large enough effect; inconclusive means small, poorly fitted or top-dose-only effect, or another doubt; inactive means no such curve, though single readings can be large; an effect the other way counts as inactive or inconclusive;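 further: plate controls were enzyme without inhibitor for no effect and buffer without enzyme for full effect; nearly all actives have a fitted effect of over 40% in size; top concentration of the series not given in the record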
Target sequence (P25779 123-467 limits assumed): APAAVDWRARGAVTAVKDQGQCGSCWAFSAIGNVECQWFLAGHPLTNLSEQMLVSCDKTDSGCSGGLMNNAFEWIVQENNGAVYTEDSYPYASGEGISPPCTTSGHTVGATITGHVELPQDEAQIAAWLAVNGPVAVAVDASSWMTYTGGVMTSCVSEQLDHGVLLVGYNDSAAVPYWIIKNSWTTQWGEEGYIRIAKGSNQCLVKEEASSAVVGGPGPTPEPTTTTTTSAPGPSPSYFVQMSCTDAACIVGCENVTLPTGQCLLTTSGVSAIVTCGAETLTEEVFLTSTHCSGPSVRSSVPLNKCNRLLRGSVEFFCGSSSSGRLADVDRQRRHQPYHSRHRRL
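Purified cruzain at 1.5 nM, pre-incubated 15 min with compound at room temperature in 100 mM sodium acetate pH 5.5, 5 mM DTT, 0.00005% Triton X-100. Reaction started with 2 uM Z-FR-AMC; AMC fluorescence increase over 60 s gives rate.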
Cruzain Triton = qHTS Assay for Promiscuous and Specific Inhibitors of Cruzain (with detergent) | Cruzipain (Trypanosoma cruzi), P25779 | purified cruzain, Z-FR-AMC fluorescence, 0.01% Triton | Potency, µM, for inactives: max response, negative = inhibition, most hits filed as inhibitors | 0.43% of 200,000 active; active means well fitted curve in the direction sought with a large enough effect; inconclusive means small, poorly fitted or top-dose-only effect, or another doubt; inactive means no such curve, though single readings can be large; an effect the other way counts as inactive or inconclusive;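 further: plate controls were neutral wells for no effect and buffer without enzyme for full effect; nearly all actives have a fitted effect of over 40% in size; top concentration of the series not given in the record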
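In this qHTS format, compounds are incubated with 1.5 nM cruzain for 15 min at room temperature before 2 uM Z-FR-AMC is added. Release of AMC is followed at 360/450 nm, and progress is taken as the 60 s fluorescence difference.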
2A StopGo = High Throughput Screening for Foot and Mouth Disease Virus Antivirals; 1.2% of 410,000 active; human cells with a luciferase reporter of 2A StopGo recoding; control for the full effect not named in the record; AID 1159524, 2015; Potency, µM (doses to about 57.9 µM), for inactives: at the highest dose signal change, negative = less light; active = well fitted falling curve with a large enough effect; inconclusive = small, poorly fitted or top-dose-only effect; inactive = no such curve, though single readings can be large or run the other way; tested in HEK293T cells; further: on the % scale 0 is the no-effect control and ±100 the full control effect; nearly all actives have a fitted effect of over 45% in size; luciferase light after 4 h
MARV entry inh = qHTS for inhibitors of binding or entry into cells for Marburg Virus; Marburg virus pseudotyped entry inhibition, cell reporter; control for the full effect not named in the record; about a third of the inactives were read at about 46 µM; Potency, µM (highest dose often 37.8 µM), inactives show at the top dose activity change, negative = inhibition, actives largely listed as inhibitors; 1.8% of 300,000 active; active = well fitted inhibition curve with a large enough effect; inconclusive = small, poorly fitted or top-dose-only effect, or effect the other way; inactive = flat fitted curve, though single readings scatter; tested in HEK293 cells; about a fifth of its hits are not listed in these tables; further: on the % scale 0 is the no-effect control and ±100 the full control effect; luciferase read-out
RE007 growth inh = qHTS Assay for Inhibitors of the HIV-1 protein Vpr | S. pombe RE007 Vpr strain, BacTiter-Glo ATP luminescence, 24 h; control for the full effect not named in the record | Potency, µM (highest dose often 92.2 µM), for the others: at the highest dose activity change, negative = less growth | 0.21% of 360,000 active | AID 651644, 2012; active = well fitted falling curve with a large enough effect; inconclusive = small, poorly fitted or top-dose-only effect; inactive = no such curve, though single readings can be large or run the other way;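 further: on the % scale 0 is the no-effect control and ±100 the full control effect; nearly all actives have a fitted effect of over 50% in size; the assay follows cell death caused by Vpr and the record does not say whether a fall means rescue or toxicity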
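Fission yeast RE007 carrying one integrated HIV-1 vpr copy, seeded at OD 0.01 in PMG+AL medium with 23 nL pinned compound. Grown 24 h at 30 degrees; viability read by BacTiter-Glo luminescence after 5 min.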
SARS PLpro yeast = qHTS of Yeast-based Assay for SARS-CoV PLP; S. cerevisiae expressing SARS-CoV PLpro, growth rescue; control for the full effect not named in the record; Potency, µM (titrated, usually from 32.9 µM), without a hit: top-dose activity, positive = growth rescue; 0.19% of 330,000 active; further: 0% is about no effect; nearly all actives have a fitted effect of over 55% in size; growth read by luminescence after 48 h
LASV entry inh = qHTS for Inhibitors of binding or entry into cells for Lassa Virus. Lassa virus pseudotype entry inhibition, cell reporter; control for the full effect not named in the record. AID 540256, 2011. 1.2% of 300,000 active. Potency, µM (series often up to 37.9 µM), for the others: top-dose activity change, negative = inhibition, hits mostly inhibitors; active means well fitted inhibition curve with a large enough effect; inconclusive means small, poorly fitted or top-dose-only effect, or effect the other way; inactive means flat fitted curve, though single readings scatter; tested in HEK293 cells; further: on the % scale 0 is the no-effect control and ±100 the full control effect; nearly all actives have a fitted effect of over 50% in size; luciferase read-out
NS1 function inh = qHTS Assay for Inhibitors of Influenza NS1 Protein Function; 0.4% of 270,000 active; Potency, µM (top dose mostly 46.1 µM), for inactives: at the top dose activity, positive = more growth; S. cerevisiae slowed by influenza A NS1, growth recovery by OD600; further: actives are rising curves; nearly all actives have a fitted effect of over 50% in size
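Compounds were scored for reversing the slow growth caused by influenza A NS1 in S. cerevisiae, measured by optical density at 600 nm. Assay medium contained 2% galactose at pH 6.0; NS1-free yeast of the same strain were the positive control.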
Numbers without * were called inactive; ? = inconclusive; . = no result given; & = joins results of further samples; [ ] = dose if it differs, or a comment. Unless noted, the call rests on the fitted dose curve; in most records, active means well fitted rising curve with a large enough effect; inconclusive means small, poorly fitted or top-dose-only effect; inactive means no such curve, though single readings can be large or run the other way. Potency means the concentration at half of the fitted maximal effect.

1: Cc1c(Cl)cccc1NC(=O)CSc1nc(=O)n(CCCN2CCOCC2)c2c1CCC2
2: COc1ccc(NC(=O)CSc2nnc(NC(=O)Nc3ccc(OC)cc3)s2)cc1
3: Cc1ccc(S(=O)(=O)NNC(=S)Nc2c(Cl)cccc2Cl)cc1
4: O=S(=O)(/N=C(/c1ccccc1)N1CCOCC1)c1ccc(F)cc1
5: COc1ccc(-n2cc(C(=O)c3cc4ccccc4oc3=O)c(C(C)=O)n2)cc1
6: O=C(CCC(=O)Nc1nnc(C2CCCCC2)s1)NCC1CCCO1 (stereo not given)

compound no.	1	2	3	4	5	6
Cruzain noTriton	.	-5%	.	.	2%	-2%
Cruzain Triton	.	-0.7%	.	.	-8.9%	1.9%
2A StopGo	2%	25%	6%	-9%	13%	16%
MARV entry inh	-4%	.	13%[46.1 µM]	4%[46.1 µM]	8%	1%
RE007 growth inh	-4%	.	23%	15%	1%	8%
SARS PLpro yeast	0%	.	0%	2%	0%	-1%
LASV entry inh	-15%	14%[46.1 µM]	-6%	18%[46.1 µM]	3%	4%
NS1 function inh	.	.	-16%	4%	2%	-2%

7: Cc1ccc(C(=O)C(OC(=O)c2cnccn2)c2ccccc2)cc1C (stereo not given)
8: CCC(=O)N1CCc2cc(CNS(=O)(=O)c3ccc(CC(C)C)cc3)ccc21
9: O=C(CSc1ccc2c(c1)OCCO2)Nc1ccc2c(c1)OCO2
10: Cc1cccc(OCC(=O)NCc2ccc3c(c2)CCN3C(=O)c2ccccc2)c1
11: COc1cccc(C(=O)c2cn(CC(=O)Nc3cc(Cl)c(OC)cc3OC)c3nc(C)ccc3c2=O)c1
12: c1ccc(-c2csc(NNC3=NCCCCC3)n2)cc1

compound no.	7	8	9	10	11	12
Cruzain noTriton	10%	10%	-7%	6%	-7%	12%
Cruzain Triton	-7.5%	-4.2%	-2.0%	-1.3%	2.1%	0.8%
2A StopGo	-13%	-15%	-21%	1%	?	13%
MARV entry inh	12%	.	-8%	.	.	?
RE007 growth inh	17%	.	-18%	.	.	-1%
SARS PLpro yeast	-21%	.	-2%	.	.	-7%
LASV entry inh	2%	7%[46.1 µM]	8%	?	-1%[46.1 µM]	-2%
NS1 function inh	-38%	.	-10%	.	.	15%

13: CCOC(=O)CN(C#N)c1nc(N(C)C)nc(N(C)C)n1
14: O=C(Nc1ccc(N2CCOCC2)c(Cl)c1)c1ccc(-n2cnnc2)cc1Cl
15: Cc1[nH]nc2c1C(c1cccc(O)c1)C1=C(CC(C)(C)CC1=O)N2 (stereo not given)
16: Cc1nnc2n1CCCCC2
17: COc1ccc(C2c3[nH]c4ccccc4c3CCN2C(=O)c2cc3ncccn3n2)c(F)c1 (stereo not given)
18: CCOP(=O)(OCC)C(Nc1cc(Cl)cc(Cl)c1)c1cccc(O)c1 (stereo not given)

compound no.	13	14	15	16	17	18
Cruzain noTriton	.	.	-1%	.	.	.
Cruzain Triton	.	.	-3.4%	.	.	.
2A StopGo	-15%	0%	0%	-2%	6%	?
MARV entry inh	?	-4%	18%	?	?	.
RE007 growth inh	28%	-8%	-13%	8%	-4%	-11%
SARS PLpro yeast	1%	2%	0%	2%	-2%	0%
LASV entry inh	-11%[46.1 µM]	-4%	-10%	?	?	.
NS1 function inh	.	-3%	4%	5%	2%	1%

19: Nc1ccc(S(=O)(=O)Nc2cc(Cl)c(N)c(Cl)c2)cc1
20: CC(=O)c1cccc(N=Cc2c(O)ccc3ccccc23)c1
21: CCCCOC(=O)c1ccc(-c2ccc(/C=N/NC(=S)NCC)o2)cc1
22: Cc1cnc(CN2CCc3c([nH]c4ccccc34)C2C2CCCCC2)[nH]1 (stereo not given)
23: COc1ccccc1N(C)S(=O)(=O)c1ccc(C(=O)OCC(=O)c2c[nH]c3ccccc23)cc1
24: COc1ccc(Oc2cc(C)c3ccccc3n2)cc1

compound no.	19	20	21	22	23	24
Cruzain noTriton	.	.	25µM*	.	?	-7%
Cruzain Triton	.	.	6.8%	.	-3.0%	-3.5%
2A StopGo	28%	-13%	11%	-16%	-28%	21%
MARV entry inh	23%[46.1 µM]	?	-6%	?	22%	8%
RE007 growth inh	22%	-14%	8%	-19%	11%	-16%
SARS PLpro yeast	.	-5%	0%	1%	8%	5%
LASV entry inh	20%[46.1 µM]	-14%	8%	9%	3%	19%
NS1 function inh	.	-2%	6%	4%	22%	-13%

25: O=C1c2ccccc2C(=O)N1CCCc1nc2ccccc2c(=O)n1Cc1ccco1
26: CN(C)CCNc1ncnc2c1cnn2-c1cccc(Cl)c1
27: COC(=O)c1ccc(CN2C(=O)c3ccccc3C2=O)cc1
28: CC1(C)NC(=O)N(CC(=O)OCC(=O)Nc2cc(S(=O)(=O)N3CCCCCC3)ccc2Cl)C1=O
29: CCc1ccc(NS(=O)(=O)c2c(C)nc3sc(CC)nn3c2=O)cc1
30: CCC(Oc1ccccc1)C(=O)Nc1ccccc1C(=O)N1CCN(C)CC1 (stereo not given)

compound no.	25	26	27	28	29	30
Cruzain noTriton	25%	-2%	.	?	-16%	.
Cruzain Triton	-1.5%	-1.0%	.	6.6%	-2.7%	.
2A StopGo	?	-9%	10%	-19%	?	-25%
MARV entry inh	21%	.	?	?	?	-32%
RE007 growth inh	7%	.	-4%	-5%	9%	4%
SARS PLpro yeast	2%	.	?	8%	10%	3%
LASV entry inh	-18%	?	1%	21%	0%[46.1 µM]	-6%
NS1 function inh	-16%	.	-24%	-10%	6%	9%

31: NC(=O)NC1NC(=O)NC1=O (stereo not given)
32: Cc1ccc(NC(=O)COC(=O)c2ccc3c(c2)OCO3)c(C)c1
33: O=C(CCNC(=O)Cn1ccc2ccccc2c1=O)NCCN1CCN(c2cccc(Cl)c2)CC1
34: CCOc1cc2c(C#N)c(N3CCCCC3)nc(N)c2c(N)n1
35: Cc1cc(C)nc(N2CCC(C(=O)NNC(=O)c3ccccc3)CC2)n1
36: CCn1c(SCC(=O)NCc2ccccc2)nnc1-c1ccccc1O

compound no.	31	32	33	34	35	36
Cruzain noTriton	-1%	.	-1%	-11%	.	25%
Cruzain Triton	1.4%	.	-4.1%	-9.1%	.	-0.5%
2A StopGo	-5%&-18%	-11%	?	35%[activator]	-6%	.
MARV entry inh	.	-2%	5%	10%	-12%[46.1 µM]	-10%
RE007 growth inh	8%	-2%	7%	2%	1%	-20%
SARS PLpro yeast	0%	0%	2%	-17%	-1%	1%
LASV entry inh	.	.	?	-3%	13%[46.1 µM]	-19%
NS1 function inh	5%	-1%	-13%	15%	-5%	-1%

Arranged by heavy-atom count (high to low): part of the list above
36: CCn1c(SCC(=O)NCc2ccccc2)nnc1-c1ccccc1O
32: Cc1ccc(NC(=O)COC(=O)c2ccc3c(c2)OCO3)c(C)c1
31: NC(=O)NC1NC(=O)NC1=O (stereo not given)

compound no.	36	32	31
Cruzain noTriton	25%	.	-1%
Cruzain Triton	-0.5%	.	1.4%
2A StopGo	.	-11%	-5%&-18%
MARV entry inh	-10%	-2%	.
RE007 growth inh	-20%	-2%	8%
SARS PLpro yeast	1%	0%	0%
LASV entry inh	-19%	.	.
NS1 function inh	-1%	-1%	5%

Other compounds.
37: CCN(CC)c1ccc(N=C2C(=O)Nc3ccccc32)cc1
38: CCCCCCC1CCC(c2nc(-c3ccncc3)no2)CC1 (stereo not given)
39: CCN(CC)CCn1cnc2c1c(=O)n(CCOC(=O)c1cc(OC)c(OC)c(OC)c1)c(=O)n2C
40: COc1cccc(CNC(=O)CSc2nnc(C)c3c(C)n(-c4ccccc4)nc23)c1OC
41: CCN(CC(=O)NCc1ccc(F)cc1)C(=O)COc1ccc(C)c(C)c1
42: COc1ccc(OC)c(CN2CCN(C(=O)CNC(=O)c3ccccc3F)CC2)c1

compound no.	37	38	39	40	41	42
Cruzain noTriton	.	4%	.	12%	?	.
Cruzain Triton	.	0.3%	.	-5.1%	6.3%	.
2A StopGo	-22%	1%	-2%	?	8%	12%
MARV entry inh	?	20%	-5%[14.2 µM]	.	0%	4%[46.1 µM]
RE007 growth inh	-21%	1%	-17%	.	-9%	3%
SARS PLpro yeast	1%	4%	0%	.	19%	2%
LASV entry inh	-26%	23%	11%	-2%[46.1 µM]	-10%	?
NS1 function inh	-1%	6%	1%	.	5%	.

43: CCOC(=O)C1CCN(C(=O)CCNC(=O)c2ccccc2OC)CC1
44: C=CCOc1ccc(C2=NO[C@@H]3[C@@H]4C[C@@H]([C@H]5C(=O)N(C)C(=O)[C@@H]45)[C@H]23)cc1
45: COc1ccccc1CNC(=O)COC(=O)Cc1c[nH]c2ccccc12
46: Cc1nnc(NC(=O)c2cccn(Cc3ccccc3)c2=O)s1
47: CCCNc1nc(N2CCCC2)nc(N2CCCC2)n1
48: CC(C)Cc1cc(C(=O)Nc2cc(C(F)(F)F)ccc2Cl)no1
49: O=C(Cn1nc(-c2ccccc2)c2ccccc2c1=O)NCCN1CCOCC1
50: CC(/C=C1\SC(=O)N(CC(=O)Nc2ccc(O)cc2)C1=O)=C\c1ccccc1
51: Cc1ccc2c(c1)c(=O)c(S(=O)(=O)c1ccc(F)cc1)cn2CC(=O)Nc1ccc2c(c1)OCO2

compound no.	43	44	45	46	47	48	49	50	51
Cruzain noTriton	.	.	.	-8%	.	-3%	-8%	13%	-29%
Cruzain Triton	.	.	.	0.6%	.	-5.4%	-2.6%	-0.1%	-6.0%
2A StopGo	-23%	-21%	-21%	-8%	?	19%	8%	-6%	22%
MARV entry inh	1%	.	19%	.	?	?	0%	-19%	-22%[46.1 µM]
RE007 growth inh	15%	10%	-6%	.	6%	-19%	0%	6%	.
SARS PLpro yeast	.	-1%	1%	.	-3%	-10%	1%	3%	.
LASV entry inh	-8%	.	-2%	23%[46.1 µM]	?	1%	?	-24%	1%[46.1 µM]
NS1 function inh	.	2%	.	.	-42%	7%	7%	?	.

Assay outcomes as filed in PubChem.

An unsorted share of the library. Share with any hit: about 4.7%.
